High-throughput results (PubChem BioAssay)
RN4220 kill: kills Staphylococcus aureus RN4220. S. aureus RN4220 growth, OD600, 16 h. inhibition, % (concentration not given with the values). 330,000 compounds, 0.33% hits. AID 1259311;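 active = z-score of -3 or lower and OD600 up to 0.18 on both plates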;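 note: plate controls were untreated cells for no effect and reference antibiotic for full effect; stock transfer was 100 nL into about 80 µL; one replicate is shown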
Bead autofluor: counter-screen for toxin protease inhibitors: compound fluorescence; compound autofluorescence counterscreen, microsphere flow cytometry; stronger effect = higher value; fluorescence intensity (no concentration beside the values); 360,000 compounds, 3.1% hits;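 active = at least 3 SD above the mean of all compounds, about 16000 in these data; inconclusive = too few beads counted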;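 note: 100 nL of 1 mM stock went into each well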
Mtb hypoxia inh: reduces hypoxia-regulated biosensor signal in M. tuberculosis; M. tuberculosis hypoxia-regulated fluorescent reporter, fluorescence; 300,000 compounds, 0.1% hits; fluorescence inhibition, % (no concentration beside the values); AID 1159583;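 active = 35 to 45% if threefold the growth effect, above 45% if 1.5-fold the growth effect; inactive = the rest, general growth blockers included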;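 note: wells of about 50 µL received 100 nL stock; 0% = vehicle wells and 100% = reference inhibitor wells; whole bacteria with a GFP reporter of the hypoxia response; strong numbers were not always called active; many hits fall short of the cut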
BJeLR viability: kills HRASV12-expressing BJeLR cells; BJeLR (HRASV12) viability, CellTiter-Glo ATP luminescence, 48 h; reference of the scale not given here; inhibition, % (no concentration beside the values); 300,000 compounds, 0.17% hits; AID 1554;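 active = replicate mean above 50%; inconclusive = above 50% but judged a plate artefact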;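 note: 50 nL library stock added to about 25 µL; numbers are from one replicate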
PrP 5UTR inh: suppresses PrP 5' UTR mRNA reporter expression | cell-based PrP 5' UTR mRNA reporter, plate reader | inhibition, % (test concentration not listed) | 340,000 compounds, 0.35% hits | AID 488862;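 active = every replicate at 50% or more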;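 note: 0 = median of the neutral control wells; tested in H4 reporter cells; numbers are from one replicate; inactives centre near -14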
ugtP null kill: kills S. aureus RN4220 lacking UgtP; S. aureus RN4220 ugtP deletion, OD600 growth, 16 h; some inactives read as strong as hits; growth inhibition, % (concentration not given with the values); 330,000 compounds, 0.54% hits;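 active = z-score under -3 and OD600 up to 0.15 on both plates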;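 note: plate controls were untreated wells for no effect and antibiotic for full effect; wells of about 80 µL received 100 nL stock; the first replicate is given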
Mtb hypoxia inh growth: also measured in Mtb hypoxia inh; calls as there; growth inhibition, %; measured here: M. tuberculosis growth (absorbance);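 0% = vehicle and 100% = reference antibiotic; read after six days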
Starred values were filed as active, the others as inactive; ? = inconclusive; / = no result given.

SMILES	RN4220 kill	Bead autofluor	Mtb hypoxia inh	Mtb hypoxia inh growth	BJeLR viability	PrP 5UTR inh	ugtP null kill
COc1ccc(NC(=S)NCCCCCC(=O)C[N+](=O)[O-])cc1	0.7	4833	-3.9	0.9	3.9	-29.5	-6.3
CCN(CC)S(=O)(=O)c1ccc(C(=O)OCC(=O)Nc2ccc(-c3nc4ccc(C)cc4s3)cc2)cc1	3.0	2059	21.0	4.8	-8.4	-9.1	-2.2
COc1nc(NC2CCCCC2)nc(N2CCCCCC2)n1	-13.4	4661	-2.1	2.9	3.9	-13.4	-37.6
O=C(Nc1nc(-c2ccc(F)cc2)cs1)c1ccc(N2C(=O)CCC2=O)cc1	0.0	5982	3.4	-2.8	7.1	-4.2	7.5
Nc1c(C(=O)Nc2cccc(Cl)c2Cl)sc2nc(-c3cccnc3)ccc12	0.1	1993	2.2	-1.3	0.9	-18.5	7.3
CC(=NCCO)c1c(O)n(C)c(=O)n(C)c1=O	3.2	8077	6.8	8.8	-6.1	-12.2	4.2
O=C(CNC(=O)c1ccc(S(=O)(=O)N2CCCC2)cc1)NN=Cc1ccccc1	10.9	/	0.6	12.0	/	/	-15.3
COC(=O)C[C@H]1c2cc(C(F)(F)F)ccc2S(=O)(=O)N1C1CCCCC1	/	3621	/	/	-2.6	-9.4	/
COc1ccc(C)cc1S(=O)(=O)NCC(c1cccnc1)N1CCc2ccccc2C1 (stereo not given)	7.7	4895	-0.8	-3.2	10.6	-12.2	4.4
CCn1c(SCC(=O)OC)nnc1C1CCCCC1	0.8	10000	9.0	2.3	-0.7	-2.9	1.2
Nc1nc(CN2CCN(c3cccc(Cl)c3)CC2)nc(N2CCCc3ccccc32)n1	-4.2	6107	/	/	-6.4	-6.8	-16.3
N#Cc1cc(-c2ccccc2)nc(NN)n1	6.1	3499	6.2	8.5	-7.0	-18.3	-1.8
COC(=O)/C=C1\N/C(=N\c2nc(C)cc(C)n2)N(c2ccccc2)C1=O	2.8	/	16.9	-2.5	-7.7	/	5.1
COC(=O)C1=C(c2ccc(OC(F)(F)F)cc2)CC2CCC1N2C(=O)NCCNC(C)=O (stereo not given)	3.5	/	11.7	7.2	/	/	8.8
O=C(c1cc(-c2ccccc2)on1)N1CCN(Cc2ccc3c(c2)OCO3)CC1	0.4	8001	5.9	-4.4	3.0	-14.1	4.4
COc1ccc(C(=O)C=CNc2c(C)n(C)n(-c3ccccc3)c2=O)cc1OC	3.7	/	3.6	1.5	/	/	-0.7
CC(=O)c1ccc(NC(=O)CCCN2C(=O)C(c3ccccc3)Oc3cccnc32)cc1 (stereo not given)	-2.6	5717	-3.3	5.7	6.0	-4.9	6.3
CCc1ccc(OCC(=O)NN=Cc2cc([N+](=O)[O-])ccc2N2CCCCCC2)cc1	-4.8	/	6.4	2.9	/	/	-2.9
COc1cc(NC(=O)c2ccc(F)cc2)ccc1NC(=O)c1cc2ccccc2o1	4.4	/	-3.3	9.0	-2.1	-3.2	2.9
COc1ccccc1C(=O)NCCC(=O)NC1=NCCS1	1.4	3845	-9.0	4.8	/	-5.4	0.1
Cc1ccc(CNc2ccc(N3C(=O)CCCC3=O)cc2[N+](=O)[O-])cc1	4.4	2148	9.7	0.6	-9.9	-20.6	12.1
CCOC(=O)C1=C(C)N(c2ccccc2)C(=O)C1	-4.3	11088	-5.8	-4.9	0.6	0.6	-5.1
CCOC(=O)NN=Cc1ccc(N2CCOCC2)s1	3.8	/	13.7	7.4	/	/	2.0
COC(=O)c1c(NC(=O)CSc2nc3nc(C)cc(C)n3n2)sc(C)c1C	2.7	2344	2.0	6.2	-2.3	-12.8	-2.6
CN(C)S(=O)(=O)N1CCC(n2nccc2NC(=O)CCc2ccccc2)CC1	/	5852	/	/	2.7	-4.1	/
CCOC(=O)c1cc(-c2ccc(C)cc2)n(CCC(=O)NCCCOC)c1C	0.4	3782	7.3	3.0	-17.2	-2.3	-0.5
c1cncc(-c2nc(-c3ccc4c(c3)OCO4)cs2)c1	9.2	3560	/	/	-1.3	-99.6	-6.2
FC(F)(F)c1ccccc1NC(=S)Nc1ccccc1	1.8	3205	4.6	-3.5	-8.5	/	1.4
Cn1cc(SCC(=O)NCCc2ccccc2)c2ccccc21	1.9	4539	2.5	9.8	-7.5	-20.2	3.1
CCOc1ccc(-n2nc3c(Cl)nnc(C)c3c2C)cc1	4.0	5030	3.5	-1.7	12.3	-10.6	3.1
O=C(CCCOc1ccc(Br)cc1)Nc1nnc(C2CC2)s1	4.2	3670	-0.6	2.5	/	0.2	1.7
CCOCc1c(C(=O)Nc2ccccc2N2CCN(C)CC2)oc2ccccc12	0.2	6641	14.6	3.3	/	-20.6	11.0
CCOC(=O)C(C)N1C(=O)S/C(=C/c2ccc3c(c2)n(C)c(=O)n3C)C1=O (stereo not given)	6.5	1954	16.0	9.5	-4.7	-7.7	5.8
O=C(OCCOCCOC(=O)Oc1ccccc1)Oc1ccccc1	7.7	3456	15.9	11.7	/	-21.7	8.7
COc1ccccc1CNC(=O)C1=CCN(S(=O)(=O)c2ccc(C)cc2)CC1	0.3	4062	3.8	2.6	-14.0	4.4	8.4
CCOC(=O)c1sc(=NC(=O)c2ccc(Br)cc2)n(C)c1C	4.4	4407	3.5	-5.0	-4.0	-6.3	10.3
CCCn1c(N)c(NCCN2CCOCC2)c(=O)[nH]c1=O	5.6	3507	0.5	7.2	-2.7	-26.8	2.3
O=C(NCC1(N2CCOCC2)CCCCC1)c1ccc(Cl)c(S(=O)(=O)NCc2ccco2)c1	3.4	14925	6.8	7.6	0.4	-16.1	4.7
Cc1cc(=O)[nH]c(N/N=C/c2ccc(OC(=O)c3ccco3)cc2)n1	/	2151	/	/	-0.7	-7.7	/
COc1ccc(-c2cc(C(=O)Nc3ccccc3F)on2)cc1	4.9	4416	6.3	-1.1	8.8	-59.6	12.2

Limited to Mtb hypoxia inh growth, ugtP null kill and Bead autofluor, for 3 of the compounds above:
mol	Mtb hypoxia inh growth	ugtP null kill	Bead autofluor
CCOCc1c(C(=O)Nc2ccccc2N2CCN(C)CC2)oc2ccccc12	3.3	11.0	6641
CCOC(=O)C(C)N1C(=O)S/C(=C/c2ccc3c(c2)n(C)c(=O)n3C)C1=O (stereo not given)	9.5	5.8	1954
O=C(OCCOCCOC(=O)Oc1ccccc1)Oc1ccccc1	11.7	8.7	3456

The list continues.
SMILES	RN4220 kill	Bead autofluor	Mtb hypoxia inh	Mtb hypoxia inh growth	BJeLR viability	PrP 5UTR inh	ugtP null kill
CCOC(=O)C1=C(C)N(C)C(=S)NC1c1ccccc1 (stereo not given)	11.7	2270	13.3	0.6	-13.8	-23.6	-4.1
O=C(COC(=O)C1CC2C=CC1C2)NCCc1ccccc1 (stereo not given)	1.7	4452	-6.4	-3.3	-7.0	-22.1	14.4
CCOc1ccc(/C(O)=C2/C(=O)C(=O)N(c3nc(C)c(C)s3)C2c2ccco2)cc1 (stereo not given)	/	?	/	/	11.2	-25.5	/
CCOC(=O)C1(Cc2ccc(Cl)cc2)CCN(C2CCC2)CC1	5.9	3358	5.8	-3.5	-13.0	-14.4	3.1
CCCCCc1cc(=O)oc2c(C(CCN3CCCC3)c3cc(OC)c(OC)c(OC)c3)c(OC)cc(OC)c12 (stereo not given)	-7.8	3921	25.6	10.7	16.1	-8.3	-32.6
O=C(CN1CCc2ccccc21)NN1CC(=O)N(c2ccc(Cl)cc2)CC1=O	2.3	5727	0.7	10.7	8.0	-6.7	2.1
COc1ccccc1C(=O)C1CCCN(C(=O)c2ccco2)C1 (stereo not given)	2.5	4398	6.2	4.9	-3.7	-13.1	-2.3
COP(=O)(CC(=O)c1ccccc1)CC(=O)c1ccccc1	3.1	2017	7.7	-8.4	-1.3	-6.2	13.5
CCCN(CC(=O)Nc1ccccc1OC)C(=O)c1ccc(S(=O)(=O)Nc2ccccc2)cc1	1.7	5526	-2.6	-0.5	6.1	-15.8	0.9
Cc1ccc(C)c(NC(=S)NNC(=O)c2cc3c(s2)CCC(C)C3)c1 (stereo not given)	1.3	1851	9.5	3.0	-3.4	-26.2	-2.4
CC1(C)C(=O)Nc2ccccc2N1C(=O)COC(=O)c1ccc([N+](=O)[O-])o1	5.9	2839	18.4	1.5	/	-13.4	13.1
COCCN1C(=O)N(c2cccc(C)c2)C(=O)C1CC(=O)Nc1ccc(OC)cc1 (stereo not given)	3.5	3457	-0.8	-1.0	-27.3	-7.5	4.5
O=C(O)CNC(=O)CC1S/C(=N/N=C2/NC(=O)CS2)NC1=O (stereo not given)	3.2	2373	1.4	-1.3	-6.8	-29.7	6.2
COc1cccc(OCCOc2c(OC)cccc2OC)c1	2.0	3426	6.9	10.1	-3.9	3.1	3.9
CC(NC(=O)c1ccc2c(c1)OCO2)C(c1cccs1)N1CCN(c2ccccc2)CC1 (stereo not given)	-0.1	4447	-0.6	8.3	10.1	-6.3	2.6
CCC(=NNC(=O)c1ccc(-c2ccccc2)cc1)C12CC3CC(CC(C3)C1)C2	0.1	/	6.5	6.7	/	/	-7.0
O=S(=O)(c1ccc(Cl)nc1)N1CCOCC1	2.6	3916	-2.0	2.0	/	1.9	3.8
CC(C)(C)c1ccc(C(=O)Nc2sc3c(c2C(=O)O)CCC3)cc1	4.1	4483	-1.3	6.4	9.9	14.3	15.9
COc1ccc(NC(=O)CN2CCN(S(=O)(=O)c3ccc(Br)cc3)CC2)c(OC)c1	2.3	5025	5.9	3.8	5.8	-17.9	9.3
CNS(=O)(=O)c1ccc(NC(=O)c2ccoc2C)cc1	1.7	4451	-2.5	14.9	2.9	-20.7	2.7
COc1ccc(-c2cc3nc(C)cc(C)n3n2)cc1	3.4	20324*	9.5	8.8	0.7	-66.6	-1.0
COc1ccccc1N/N=C(\C#N)C(=N)N1CCOCC1	/	4165	/	/	5.2	-20.0	/
Cc1ccc(C)c(-n2c(CNC(=O)c3ccco3)nnc2SCC(=O)Nc2nccs2)c1	1.4	4623	0.3	15.6	/	-18.0	-1.1
CN(C)/C=C(\C#N)C(=O)c1cccnc1Oc1ccc(F)cc1F	3.0	24847*	1.0	6.4	-6.1	-26.7	6.1
FC(F)(F)c1cccc(-c2ccc(C=NNc3nncc(-c4ccccc4)n3)o2)c1	0.0	/	10.9	-1.1	/	/	-10.1
CCN(CC(=O)Nc1ccc(NC(C)=O)cc1)C(=O)/C=C/c1ccc2c(c1)OCO2	0.6	6079	-5.9	7.4	1.2	-9.1	0.4
O=C(CCNS(=O)(=O)c1ccc(Cl)cc1)N1CCCC1	-5.8	?	-4.3	-5.8	-4.0	4.6	-2.1
O=C1c2oc3ccc(F)cc3c(=O)c2C(c2cccc(O)c2)N1CCCN1CCOCC1 (stereo not given)	4.6	4506	/	/	-14.0	-14.4	6.5
COc1cc2oc(=O)cc(-c3cccc(-c4ccc(C(F)(F)F)cc4)c3)c2c(OC)c1OC	-6.5	3722	-21.1	-0.8	/	-18.8	46.8
O=C(COC(=O)c1ccco1)c1ccc2ccccc2c1	6.9	4676	/	/	0.9	-17.6	2.0
C=CCN1C(=O)/C(=C/c2ccc(O)cc2)SC1=Nc1nccs1	-0.6	/	0.6	-18.1	/	/	20.5
C=CCc1ccc(OCCOCCNCCCC)c(OC)c1	4.3	2585	13.0	7.2	6.5	-11.9	-4.6
CCOc1cccc(CN2CCC(n3nccc3NC(=O)C3CCCC3)CC2)c1	-1.8	6213	-9.7	6.3	-6.8	-1.8	-5.2
C=CCN(CC=C)S(=O)(=O)c1ccc(NC(=S)NC(=O)/C=C/c2cccc3ccccc23)cc1	-1.4	3727	/	/	1.1	-14.4	7.0
COc1ccccc1NC(=O)CSc1nncs1	1.5	3846	-4.7	-3.1	/	-17.5	4.6
Cc1ccc(CN2CCN(Cc3ccc(-n4cccn4)cc3C)CC2CCO)cc1 (stereo not given)	-1.5	4930	6.7	2.7	0.2	-10.4	-3.3

Among those listed so far, 3 contain a cyano group.
SMILES	RN4220 kill	Bead autofluor	Mtb hypoxia inh	Mtb hypoxia inh growth	BJeLR viability	PrP 5UTR inh	ugtP null kill
N#Cc1cc(-c2ccccc2)nc(NN)n1	6.1	3499	6.2	8.5	-7.0	-18.3	-1.8
COc1ccccc1N/N=C(\C#N)C(=N)N1CCOCC1	/	4165	/	/	5.2	-20.0	/
CN(C)/C=C(\C#N)C(=O)c1cccnc1Oc1ccc(F)cc1F	3.0	24847*	1.0	6.4	-6.1	-26.7	6.1
